BJeLR lethal: kills HRASV12-expressing BJeLR cells; inhibition, % (no concentration beside the values); BJeLR (HRASV12) viability, CellTiter-Glo ATP luminescence, 48 h; reference of the scale not given here; actives 0.17% (n = 300,000);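 active = replicate mean above 50%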;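 also: 50 nL library stock added to about 25 µL; numbers are from one replicate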
Autofluor counter: flagged as autofluorescent in microsphere protease counterscreen. compound autofluorescence counterscreen, microsphere flow cytometry; active compounds read high. fluorescence intensity (concentration not given with the values). actives 3.1% (n = 360,000);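 active = at least 3 SD above the mean of all compounds, about 16000 in these data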;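 also: 100 nL of 1 mM stock went into each well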
Sa ugtP lethal: growth inhibition of S. aureus ugtP deletion strain | S. aureus RN4220 ugtP deletion, OD600 growth, 16 h; some inactives read as strong as hits | growth inhibition, % (test concentration not listed) | actives 0.54% (n = 330,000) | AID 1259309;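 active = z-score under -3 and OD600 up to 0.15 on both plates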;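 also: plate controls were untreated wells for no effect and antibiotic for full effect; wells of about 80 µL received 100 nL stock; the first replicate is given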
Mtb hypoxia rep: reduces hypoxia-regulated biosensor signal in M. tuberculosis. M. tuberculosis hypoxia-regulated fluorescent reporter, fluorescence. actives 0.1% (n = 300,000). fluorescence inhibition, % (concentration not given with the values);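 active = 35 to 45% if threefold the growth effect, above 45% if 1.5-fold the growth effect; inactive = the rest, general growth blockers included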;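 also: wells of about 50 µL received 100 nL stock; 0% = vehicle wells and 100% = reference inhibitor wells; whole bacteria with a GFP reporter of the hypoxia response; strong numbers were not always called active; many hits fall short of the cut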
PrP UTR inh: inhibition of PrP 5' UTR reporter expression; cell-based PrP 5' UTR mRNA reporter, plate reader; actives 0.35% (n = 340,000); inhibition, % (test concentration not listed);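 active = every replicate at 50% or more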;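 also: 0 = median of the neutral control wells; tested in H4 reporter cells; numbers are from one replicate; inactives centre near -14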
RN4220 kill: kills Staphylococcus aureus RN4220; S. aureus RN4220 growth, OD600, 16 h; inhibition, % (no concentration beside the values); actives 0.33% (n = 330,000);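 active = z-score of -3 or lower and OD600 up to 0.18 on both plates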;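 also: plate controls were untreated cells for no effect and reference antibiotic for full effect; stock transfer was 100 nL into about 80 µL; one replicate is shown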
Mtb hypoxia rep growth: recorded beside Mtb hypoxia rep, whose call it bears; growth inhibition, %; measured here: M. tuberculosis growth (absorbance);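 0% = vehicle and 100% = reference antibiotic; read after six days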
Numbers without * were called inactive; . = not tested or not shown; & = joins results of further samples.

Letter code: A = BJeLR lethal; B = Autofluor counter; C = Sa ugtP lethal; D = Mtb hypoxia rep; E = Mtb hypoxia rep growth; F = PrP UTR inh; G = RN4220 kill
#1 CCC(C)CN1C(=O)NC(CCc2ccccc2)C(C(C)=O)=C1C (stereo unspecified)
  A: .; B: .; C: -2; D: 5; E: 5; F: .; G: 3.7

#2 O=C(NCc1cccs1)c1nc2c(nnn2Cc2ccccc2Cl)c(=O)[nH]1
  A: 4; B: 11231; C: -12; D: 3; E: 2; F: -18; G: 18

#3 Cc1ccc(S(=O)(=O)NC(C(=O)Oc2cc3oc(=O)cc(C)c3cc2Cl)C(C)C)cc1 (stereo unspecified)
  A: -6; B: 2011; C: 12; D: 12; E: 5; F: -15&-16; G: 6.8

#4 CN(Cc1ccccc1)S(=O)(=O)c1ccc(NS(=O)(=O)Cc2ccccc2)cc1
  A: 1; B: 8229; C: 8; D: 5; E: 0; F: -23; G: -0.7

#5 Cc1cc(N2CCN(C(=O)c3ccco3)CC2)n2nc(C)c(-c3ccccc3)c2n1
  A: -4; B: 8642; C: 1; D: 1; E: 0; F: -10; G: -1.1

#6 CN(C(=O)COC(=O)c1cc(=O)[nH]c2ccccc12)C1CCCCC1
  A: .; B: 2818; C: 4; D: -4; E: 1; F: 1; G: 1.1

#7 C=CCOc1ccc(C2C(C(=O)c3ccco3)=C(O)C(=O)N2Cc2cccnc2)cc1 (stereo unspecified)
  A: -2; B: 8779; C: 0; D: 5; E: 15; F: -11; G: 4.0

#8 [N-]=[N+]=NCC/C=C\C1NS(=O)(=O)OCC1O (stereo unspecified)
  A: -12; B: 4090; C: .; D: .; E: .; F: -20; G: .

#9 CCCN(CC(=O)Nc1ccccc1C)C(=O)COC(=O)c1cnc(C)cn1
  A: .; B: 5919; C: 5; D: 0; E: 10; F: -22; G: 2.3

#10 COc1cc(CCCN2C(=O)C(=O)NCC2C(C)O)cc(OC)c1OC (stereo unspecified)
  A: .; B: .; C: -4; D: 3; E: 5; F: .; G: 6.6

#11 CNc1ccc(C(=O)OCC(=O)NC(=O)NC2CCCC2)cc1[N+](=O)[O-]
  A: .; B: 3755; C: 4; D: 16; E: 4; F: -10; G: 4.6

#12 Nc1nc(Nc2cccc(F)c2)nc2ccccc12
  A: 14; B: 3929; C: -15; D: -12; E: -2; F: -98; G: -3.2

#13 CCOc1ccc(NC(=O)CC2C(=O)N(c3ccc(OC)cc3)C(=O)N2CCc2ccc(OC)c(OC)c2)cc1 (stereo unspecified)
  A: -2; B: 1829; C: 7; D: 7; E: -4; F: -20; G: 0.8

#14 COc1ccccc1CNc1ncc(-c2ccc(F)cc2)n1C
  A: -11; B: 4555; C: -4; D: -20; E: 0; F: -13; G: -6.9

#15 O=C(c1cc(-c2ccccc2)nn1-c1ccccc1)N1CCN(S(=O)(=O)c2ccc(F)cc2)CC1
  A: -8; B: 5779; C: 5; D: -10; E: 0; F: -12; G: 1.0

Some of these compounds in order of length of the SMILES, rising.
Letter code: A = BJeLR lethal; B = Autofluor counter; C = Sa ugtP lethal; D = Mtb hypoxia rep; E = Mtb hypoxia rep growth; F = PrP UTR inh; G = RN4220 kill
#12 Nc1nc(Nc2cccc(F)c2)nc2ccccc12
  A: 14; B: 3929; C: -15; D: -12; E: -2; F: -98; G: -3.2

#1 CCC(C)CN1C(=O)NC(CCc2ccccc2)C(C(C)=O)=C1C (stereo unspecified)
  A: .; B: .; C: -2; D: 5; E: 5; F: .; G: 3.7

#6 CN(C(=O)COC(=O)c1cc(=O)[nH]c2ccccc12)C1CCCCC1
  A: .; B: 2818; C: 4; D: -4; E: 1; F: 1; G: 1.1

#2 O=C(NCc1cccs1)c1nc2c(nnn2Cc2ccccc2Cl)c(=O)[nH]1
  A: 4; B: 11231; C: -12; D: 3; E: 2; F: -18; G: 18

#4 CN(Cc1ccccc1)S(=O)(=O)c1ccc(NS(=O)(=O)Cc2ccccc2)cc1
  A: 1; B: 8229; C: 8; D: 5; E: 0; F: -23; G: -0.7

#5 Cc1cc(N2CCN(C(=O)c3ccco3)CC2)n2nc(C)c(-c3ccccc3)c2n1
  A: -4; B: 8642; C: 1; D: 1; E: 0; F: -10; G: -1.1

#7 C=CCOc1ccc(C2C(C(=O)c3ccco3)=C(O)C(=O)N2Cc2cccnc2)cc1 (stereo unspecified)
  A: -2; B: 8779; C: 0; D: 5; E: 15; F: -11; G: 4.0

#3 Cc1ccc(S(=O)(=O)NC(C(=O)Oc2cc3oc(=O)cc(C)c3cc2Cl)C(C)C)cc1 (stereo unspecified)
  A: -6; B: 2011; C: 12; D: 12; E: 5; F: -15&-16; G: 6.8

#15 O=C(c1cc(-c2ccccc2)nn1-c1ccccc1)N1CCN(S(=O)(=O)c2ccc(F)cc2)CC1
  A: -8; B: 5779; C: 5; D: -10; E: 0; F: -12; G: 1.0

#13 CCOc1ccc(NC(=O)CC2C(=O)N(c3ccc(OC)cc3)C(=O)N2CCc2ccc(OC)c(OC)c2)cc1 (stereo unspecified)
  A: -2; B: 1829; C: 7; D: 7; E: -4; F: -20; G: 0.8

The list goes on.
Letter code: A = BJeLR lethal; B = Autofluor counter; C = Sa ugtP lethal; D = Mtb hypoxia rep; E = Mtb hypoxia rep growth; F = PrP UTR inh; G = RN4220 kill
#16 CCCn1ncc(C(=O)N(C)C2CCCN(Cc3ccccc3F)C2)c1C (stereo unspecified)
  A: 6; B: 5518; C: 8; D: 13; E: 4; F: -3; G: 4.9

#17 CC(=O)Nc1ccc(S(=O)(=O)NCC2CCC(C(=O)NCc3ccccc3)CC2)cc1 (stereo unspecified)
  A: 1; B: 4206; C: 8; D: 2; E: 0; F: -22; G: -1.3

#18 COc1cc2cccc(OC)c(=O)c2c(O)c1OC
  A: 1; B: 2439; C: 9; D: 7; E: -7; F: -35; G: 4.4

#19 Cc1ccc(S(=O)(=O)NC(=O)Nc2ccc(C)cn2)cc1
  A: -3; B: 6314; C: .; D: .; E: .; F: -44; G: .

#20 CCN1CCN(c2ccc(S(=O)(=O)N3CCCCC3)cc2NC(=O)Cc2ccc(Cl)c(Cl)c2)CC1
  A: 14; B: 4526; C: 2; D: 14; E: 2; F: -12; G: 3.3

#21 CCOC1OC(C(=O)NCc2nc3ccccc3[nH]2)=CC(c2csc3ccccc23)C1CCCO (stereo unspecified)
  A: .; B: .; C: 7; D: 7; E: 16; F: .; G: -7.3

#22 Nc1c(C(=O)c2ccccc2)sc2snc(SCC(=O)c3ccccc3)c12
  A: 0; B: 2338; C: -5; D: .; E: .; F: -41; G: -1.8

#23 O=C(COC(=O)c1ccc(Sc2ccccc2)c([N+](=O)[O-])c1)NC1CCS(=O)(=O)C1 (stereo unspecified)
  A: 1; B: 2125; C: -2; D: -3; E: -3; F: -7; G: 3.9

#24 O=C(Nc1cccnc1)NC1CCCCC1
  A: 11; B: 4759; C: 4; D: -2; E: 11; F: -25; G: 2.5

#25 O=C(O)c1ccc2c(c1)C(=O)N(C(Cc1ccc(O)cc1)C(=O)O)C2=O (stereo unspecified)
  A: -3; B: 21507*; C: -7; D: 8; E: 5; F: -21; G: 6.1

#26 c1ccc(-n2c(SCC3CCCCO3)nnc2-c2cnccn2)cc1 (stereo unspecified)
  A: 18; B: 3306; C: -1; D: 7; E: 11; F: -10; G: 2.9

#27 O=C(NC1CCCN(Cc2ccc(Cl)cc2)C1)c1ccnc(Cl)c1 (stereo unspecified)
  A: -1; B: 5000; C: 10; D: 16; E: 8; F: -60; G: 3.6

#28 Cc1ccc(C(=O)NN=C2SCC(=O)N2c2cc(C)ccc2C)cc1
  A: .; B: .; C: 16; D: 11; E: 3; F: .; G: 5.4

#29 CCCc1nc(SCC(=O)NNC(=O)c2ccc(OC)cc2)c2ccccc2n1
  A: .; B: 4475; C: 6; D: 16; E: 6; F: -23; G: -1.1

#30 CCOc1ccccc1NC(=O)CN(C)S(=O)(=O)c1ccc(OC)c(C)c1
  A: -10; B: 10909; C: -7; D: 16; E: 9; F: -3; G: 7.9

#31 Cc1cccc(C)c1NC(=S)N(c1ccccc1)C(C)C
  A: 3; B: 2582; C: -1; D: -3; E: -3; F: -6; G: 3.5

#32 Cc1ccc(S(=O)(=O)CC(c2ccccc2)N2CCCCC2)cc1 (stereo unspecified)
  A: 1; B: 2046; C: -3; D: 12; E: 5; F: -7; G: 5.7
